Bioassay records: PubChem BioAssay, National Center for Advancing Translational Sciences (NCATS)
YjeE inh = inhibitors of E. coli YjeE (TsaE); purified YjeE, fluorescence polarisation of a bound ADP probe; Potency, µM; 71,000 tested, 0.05% active; AID 605; P0AF67; active = well fitted falling curve; inconclusive = weaker or top-dose-only fall, or a rising curve; inactive = flat or poorly fitted curve;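 further: top concentration of the series not given in the record; excess ADP was the control for the full effect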
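Fluorescence polarization of a BODIPY Texas Red–ADP probe (2 uM) bound to purified YjeE (10 uM) was read after 15 min room-temperature incubation with compounds. Loss of polarization marks inhibitors; ADP serves as titrated control.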
PK Bst = modulators of Bacillus stearothermophilus pyruvate kinase; partly purified Bacillus stearothermophilus pyruvate kinase, luminescence ATP production; ribose 5-phosphate activator present at AC10; Potency, µM; 51,000 tested, 1.2% active; AID 361; in the data active means potency below about 11 µM; inconclusive means mostly about 12 µM to 25 µM; inactive means weaker than that;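 the screen sought inhibitors and activators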;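 further: potency means the concentration at half of the fitted maximal effect; scaled between full activation by ribose 5 phosphate and full inhibition by luteolin; about four in five hits inhibit and the cells do not say which; series up to 57 µM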
* = called active by the depositor; i = inactive; / = no result given; & = joins results of further samples. These rows are one share of the data. The share of hits here may be higher or lower than overall.

structure | PK Bst | YjeE inh
COc1ccc(-c2c3c(nc4sc(C(=O)Nc5cc(C)on5)c(N)c24)CCC3)cc1 | >57 | i
CN(Cc1cc(C(C)(C)C)cc(Br)c1O)Cc1cc(C(C)(C)C)cc(Br)c1O | / | i
CN1CCN(C(=O)c2cc3nc(-c4ccc(F)cc4)cc(C(F)(F)F)n3n2)CC1 | / | i
COCCCn1c(SCC(=O)Nc2nnc(C)s2)nnc1-c1ccoc1C | >57 | i
O=S(=O)(c1ccc2ccccc2c1)n1cnc2ccccc21 | i | i
CC/C(C)=C1\SC(N2CCN(C(C)=O)CC2)=NC1=O | >11 | /
COc1ccc(/C(O)=C2/C(=O)C(=O)N(c3ncccn3)C2c2ccc(OC)c(OC)c2)cc1 (centres undefined) | >26 | /
O=C(CSc1nnc2n(C3CCCC3)c(=O)c3ccccc3n12)N1CCCCCC1 | / | i
CSc1nc(NCc2ccco2)c2c3c(sc2n1)CN(C)CC3 | >57 | i
COc1cc(OC)nc(NC(=O)CSc2nc3ccccc3o2)n1 | >57 | i
O=C(CCn1nnc2ccccc2c1=O)NCC1CCC(C(=O)O)CC1 (centres undefined) | >57 | i
COC(=O)c1n[nH]c2ccccc12 | >26 | /

Other records follow:
structure | PK Bst | YjeE inh
CC(=O)/C(C#N)=C1\NC(=O)C(Cc2ccccc2)S1 (centres undefined) | >26 | /
C=CCn1c(=O)c2c(nc3n2CCN3c2cccc(Cl)c2C)n(C)c1=O | >57 | i
Cc1ccccc1CS(=O)(=O)Cc1ccc(C(=O)NCCCN2CCOCC2)o1 | >57 | i
CCCN(CCC)S(=O)(=O)c1ccc(C(=O)Nc2nnc(CSC)o2)cc1 | >57 | i
CCCCOc1ccc(C(=O)Nc2cccc(C)n2)cc1 | i | i
Cc1ccc(NC(=O)c2ccc(S(=O)(=O)N3CCCC3)cc2)cc1 | >57 | i
CCC(=O)N1CCN=C1SCc1ccccc1 | / | i
Cn1cccc1C(=O)N1CCC[C@@]2(CCN(C(c3ccccc3)c3ccccc3)C2)C1 | / | i
O=C(Nc1cccc(O)c1)C1CCCN1C(=O)OCc1ccccc1 (centres undefined) | >57 | i
C[C@]1(OC(=O)/C=C\c2ccccc2)C[C@@H](O)[C@@]2(O)C=CO[C@@H](O[C@H]3O[C@@H](CO)[C@@H](O)[C@@H](O)[C@@H]3O)[C@H]21 | / | i
CC1(C)CC(=O)c2cc(C(=O)N3CCN(CCO)CC3)c(=O)n(-c3ccc(Cl)cc3)c2C1 | / | i
O=C(NCCc1ccccc1F)[C@@H]1CSC2c3ccccc3C(=O)N21 (some centres undefined) | >57 | i

Next section.
structure | PK Bst | YjeE inh
O=C(NCC1CCCO1)c1cccc(N2C(=O)C3C4C=CC(C4)C3C2=O)c1 (centres undefined) | >57 | i
CCn1c(=O)cc(SCC(=O)N2CCN(c3ccccn3)CC2)c2ccccc21 | >57 | i
Cc1ccc2cc(CNC(C)(C)C)c(=O)[nH]c2c1 | >26 | /
Cc1cc(C)cc(OC(=O)N2CCOCC2)c1 | >57 | i
CCC(=O)c1ccccc1OCCSc1nc(C)cc(=O)[nH]1 | >57 | i
CCC1Oc2ccc(C)cc2N(CC(=O)NCCN2CCCCCC2)C1=O (centres undefined) | >57 | i
COc1ccc(N2CCN(c3nc4ccccc4n3CC(=O)c3ccccc3)CC2)cc1 | >57 | i
CCN1C(=O)Cc2cc(S(=O)(=O)N3CCOCC3)ccc21 | >57 | i
COC(=O)/C=c1/s/c(=C(/C#N)C(=O)N2CCCCC2)n(-c2ccccc2)c1=O | >26 | /
O=C(CCN1C(=O)C2C3C=CC(C3)C2C1=O)Nc1nccs1 (centres undefined) | >57 | i
Cc1c(Cl)c(S(N)(=O)=O)cc2c1=NC=NS=2(=O)O | / | i
O=C(CCC(=O)NC1CC1)Nc1nnc(C2CCCCC2)s1 | >57 | i

Carrying on:
structure | PK Bst | YjeE inh
CC1(Cc2ccc3c(c2)OCO3)NC(=O)NC1=O (centres undefined) | >57 | i
COC(=O)[C@H]1[C@@H]2C[C@H]3c4[nH]c5ccccc5c4CCN3C[C@@H]2CC[C@@H]1O | / | i
Cn1c(=O)n(C)c2cc(NC(=O)c3cc4ccccc4o3)ccc21 | / | i
COc1ccc(C2C3=C(CC(C)(C)CC3=O)Oc3ncn4nc(-c5cccnc5)nc4c32)cc1OC (centres undefined) | >57 | i
Cn1c(CNc2ccc(Cl)cc2)nc2ccccc21 | i | i
COc1ccc(S(=O)(=O)N2Cc3ccccc3CC2C(=O)Nc2ccc(O)cc2)cc1OC (centres undefined) | / | i
Cc1cc2nc(-c3ccc(NC(=O)C(C)C)cc3)oc2cc1C | / | i
CCOC(=O)C1CCCN(Cc2nc(N)nc(Nc3ccc(Cl)cc3)n2)C1 (centres undefined) | >57 | i
Cc1cc(Oc2ccc(-c3ccccc3)cc2)n2ncnc2n1 | >57 | i
COC(=O)c1ccc(CCc2cc(O)ccc2O)cc1 | / | i
O=C(CNC(=O)c1ccco1)NCC(=O)OCc1ccccc1Br | >57 | i
CCOc1cc2c(cc1OCC)C(c1ccc(O)c(OC)c1)NCC2 (centres undefined) | / | i

Going on with the list:
structure | PK Bst | YjeE inh
CCN1C(=O)CC(C(=O)Nc2ccc(F)cc2)SC1=Nc1cccc(OC)c1 (centres undefined) | >57 | i
CN1CCN(c2cc(=O)n(C3CCCCC3)c(=O)[nH]2)CC1 | / | i
CC(=O)c1cccc(NC(=O)Nc2ccc3c(c2)N(C)C(=O)CS3)c1 | i | i
Cc1ccc(SCc2cc(=O)n3[nH]cnc3n2)cc1 | i | i
CCOC(=O)C1CCN(C(=O)C2CCCCC2)CC1 | >57 | i
O=C(CSc1nnc(Cc2cc(=O)[nH]c(=O)[nH]2)n1-c1ccc(F)cc1)N1CCCCC1 | / | i
CCCCCCNC(=O)c1c(O)c2cccc3c2n(c1=O)CCC3 | >57 | i
CC(C)Oc1ccccc1-c1nc(SCC(=O)O)n[nH]1 | >57 | i
Cc1nc2ccccc2c(=O)n1/N=C/c1cn(-c2ccccc2)nc1-c1cccs1 | / | i
O=C(NCc1ccco1)C1CN(S(=O)(=O)c2ccccc2)CCN1S(=O)(=O)c1ccccc1 (centres undefined) | >57 | i
COc1ccc(CCN2CC(C#N)=C3c4cc(OC)c(OC)cc4CCN3C2)cc1OC | / | i
CCCOC(=O)C1[C@H]2C(=O)N(CCCOC)C[C@]23C=C[C@H]1O3 (some centres undefined) | >57 | i

Next compounds
structure | PK Bst | YjeE inh
CC1CC(C)CN(CCCNC(=O)CNC(=O)Cn2ccc3ccccc3c2=O)C1 (centres undefined) | >57 | i
Cc1cccc2cc(C#N)c(SCC(=O)N3CCC(C)CC3)nc12 | >57 | i
CCN(CC)C(=O)CCC(=O)Nc1ccc(C(=O)OC)cc1 | >57 | i
CCOC(=O)c1ccc(Nc2c(CC)c(C)nc3ncnn23)cc1 | >57 | i
C1=CN2CCC1C(c1ccccc1)C2 (centres undefined) | >57 | i
CS(=O)(=O)N1CCC[C@@]2(CCN(c3ccccc3)C2)C1 | / | i
CCOc1ccc(-c2cn(S(=O)(=O)c3cccc4nsnc34)nc2N)cc1 | i | i
COc1ccccc1OCC(=O)Nc1ccc(S(=O)(=O)Nc2cc(C)nc(C)n2)cc1 | >26 | /
Cc1ccc(-c2nnc3ccc(SCC(=O)Nc4cc(C)on4)nn23)cc1 | >57 | i
Cc1occc1-c1nnc(SCC(=O)NCc2cccs2)n1-c1ccc(F)cc1 | >57 | i
c1ccc(-n2ncc3c(N4CCN(c5ccccn5)CC4)nc(N4CCCCCC4)nc32)cc1 | >57 | i
COc1cccc(NC2=NCC(=O)N2Cc2cccs2)c1 | >57 | i

Next part.
structure | PK Bst | YjeE inh
CCOc1ccccc1NC(=O)N1CCCC1C(=O)Nc1nnc(CC)s1 (centres undefined) | >57 | i
Cc1cc2nc3c(=O)[nH]c(=O)nc-3n(CC(O)C(O)C(O)CO)c2cc1C (centres undefined) | / | i
CCn1nc(NC(=O)c2ccccn2)c2cc3cccc(C)c3nc21 | >57 | i
CCn1c(SCC(=O)NC2CCCCC2)nc2c(c1=O)SC(C)C2 (centres undefined) | >57 | i
COc1ccc(N(C(C)C(=O)NCc2ccco2)S(C)(=O)=O)cc1 (centres undefined) | >57 | i
Cc1cc(SCC(=O)c2ccc(Br)cc2)cc(C)[o+]1 | / | i
O=C(OCCCN1CCCC1)C1(c2ccccc2)CCCC1 | >26 | /
COc1cc(C)c(C(C)C)cc1S(=O)(=O)NCCCn1ccnc1 | >57 | i
COC(=O)c1ccc(C(=O)OC)c(NC(=O)CSc2nnc(-c3ccccc3Cl)o2)c1 | >57 | i
N#Cc1c(SCC(=O)N2CCCCC2)nsc1SCC(=O)N1CCCCC1 | >57 | i
N#CCCn1c2ccccc2c2nc3ccccc3nc21 | / | i
Cc1ccc(CNC(=O)CSc2nc(C)cc(C)c2C#N)cc1 | >57 | i

Remaining list, next part
structure | PK Bst | YjeE inh
COc1ccc(OC)c(S(=O)(=O)N(C)CC(=O)N2CCc3ccccc3C2)c1 | >57 | i
CCOc1ccc(NC(=O)CN2CCN(CC(=O)Nc3ccc(F)c(F)c3)CC2)cc1 | >57 | i
CCn1c(SCc2cccc(C(=O)O)c2)nnc1-c1ccccc1 | >57 | i
COCC(C)NC(=O)c1ccccc1OC(C)=O (centres undefined) | >57 | i
CC1CCCN(S(=O)(=O)c2cc(Cl)ccc2Cl)C1 (centres undefined) | i | i
Cc1cccc(CNc2ncnc3ccc(-c4cccc(C#N)c4)cc23)c1 | / | i
CC1=C(C#N)C(c2ccoc2)C(C(=O)OCc2ccccc2)=C(N)S1 (centres undefined) | >57 | i
O=C(c1cc(C(F)(F)F)cc(C(F)(F)F)c1)N1CCC2(CC1)CN(c1ccncc1)C2 | / | i
C=CC[C@@H](C(=O)O)c1ccccc1 | / | i
O=C(Cn1cc2c(n1)CCCCC2)NCc1cccs1 | / | i
CC(=O)OCC1=C(C(=O)O)N2C(=O)[C@@H](NC(=O)Cc3cccs3)[C@@H]2SC1 | / | i
CCCCOC(=O)c1ccc(NC(=O)CSc2nncn2C)cc1 | >26 | /

Following part.
structure | PK Bst | YjeE inh
CSc1nnc2c3cc(F)ccc3n(Cc3ccccc3)c2n1 | >57 | i
COc1ccccc1NC(=O)N1CCN(c2ccccn2)CC1 | / | i
COc1ccc(C2CC3CC(c4ccccc4)N2O3)cc1 (centres undefined) | / | i
CCOC(=O)c1c(NC(=O)CNCCO)sc(C)c1C | >57 | i
O=c1c2ccccc2nc(SCc2cc(F)cc3c2OCOC3)n1Cc1ccco1 | >57 | i
COC(=O)CCn1nnc(-c2ccc(C(C)C)cc2)n1 | >57 | i
COc1cccc(-c2noc(CCC(=O)NC3CCCCC3)n2)c1 | >57 | i
CCOC(=O)c1sc(C)c(C(=O)NCCCN2CCOCC2)c1N | >57 | i
CCOC(=O)CNC(=O)Cn1cnc2c(nnn2-c2ccc(F)cc2)c1=O | >57 | i
CCCCOc1cc(C(=O)NCCN(CC)CC)c2ccccc2n1 | >26&>26 | i
Cn1cccc1Cc1nnc(SCC(=O)Nc2ccc(F)cc2)n1CCc1ccccc1 | / | i
Clc1ccc(SCCn2cncn2)cc1 | >57 | i

More structures follow.
structure | PK Bst | YjeE inh
O=C1CN(C(=O)c2ccccn2)c2ccccc2N1 | >57 | i
COCC(C)n1c(C)cc(C(=O)CN2C(=O)NC3(CCCCC3C)C2=O)c1C (centres undefined) | >57 | i
NCCOC[C@H](N)C(=O)O | / | i
CCOC(=O)CSc1nc(-c2ccncc2)ccc1C#N | i | /
CC(=O)NCCNc1ncnc2ccc(-c3ccoc3)cc12 | / | i
CCOC(=O)c1sc(NCc2ccco2)c(-c2nc3ccccc3s2)c1N | >57 | i
COC(=O)c1ccccc1NC(=O)Nc1ccc(C(=O)N2CCCC2)cc1 | >57 | i
COc1ccc(CCNC(=O)CN(c2ccc(OC)c(OC)c2)S(C)(=O)=O)cc1OC | / | i
Cn1c(=O)c(-c2ccccc2)nc2cnc(Nc3ccccc3)nc21 | / | i
Cc1ccc(Cc2c(C)nc3c(C(=O)O)cnn3c2C)cc1 | >57 | i
CC(C)Cn1c(CN2CCCCC2C)nc2c1c(=O)n(C)c(=O)n2C (centres undefined) | / | i
CN[C@H]1[C@H](O)[C@@H](O[C@@H]2[C@H](O)[C@@H](O[C@H]3OC(CN)=CC[C@H]3N)[C@@H](N)C[C@H]2N)OC[C@@]1(C)O | / | i

The list continues.
structure | PK Bst | YjeE inh
CC1CCc2nc(N)c(C#N)c(-c3ccncc3)c2C1 (centres undefined) | >57 | i
CSc1nccc(Nc2ccccc2)c1C#N | >57 | i
Cn1c(=O)c2cn3ncccc3c2n(C)c1=O | >57 | i
Cc1cnc(C(=O)OCC(=O)N2CCN(C(=O)c3ccco3)CC2)cn1 | >57 | i
Cc1cc(N2CCc3ccccc32)n2ncnc2n1 | >57 | i
Cc1sc2nc(CSc3nc4ccccc4c(=O)n3CCCN3CCOCC3)[nH]c(=O)c2c1C | >57 | i
O=C(Cn1nnc(-c2ccccc2)n1)OCc1ccccc1 | >57 | i
